Bioassay records: PubChem, Broad Institute
MLL AF4-AF9 inh = inhibitors of AF4 peptide binding to AF9, primary screen, biochemical, AlphaScreen, biotin-AF4 peptide, FLAG-AF9, single point; inhibition, % at 10 µM; actives 0.47% (n = 350,000); AID 651704, 2012;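 active means every replicate reaching a set inhibition limit, whatever the replicate mean, cut at about 25% in these data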;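 further: 0% = plate neutral control median and 100% = total signal loss; the record names both 10 and 1 µM as test concentration; the first replicate is given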
Target sequence (P42568 whole entry, looked up): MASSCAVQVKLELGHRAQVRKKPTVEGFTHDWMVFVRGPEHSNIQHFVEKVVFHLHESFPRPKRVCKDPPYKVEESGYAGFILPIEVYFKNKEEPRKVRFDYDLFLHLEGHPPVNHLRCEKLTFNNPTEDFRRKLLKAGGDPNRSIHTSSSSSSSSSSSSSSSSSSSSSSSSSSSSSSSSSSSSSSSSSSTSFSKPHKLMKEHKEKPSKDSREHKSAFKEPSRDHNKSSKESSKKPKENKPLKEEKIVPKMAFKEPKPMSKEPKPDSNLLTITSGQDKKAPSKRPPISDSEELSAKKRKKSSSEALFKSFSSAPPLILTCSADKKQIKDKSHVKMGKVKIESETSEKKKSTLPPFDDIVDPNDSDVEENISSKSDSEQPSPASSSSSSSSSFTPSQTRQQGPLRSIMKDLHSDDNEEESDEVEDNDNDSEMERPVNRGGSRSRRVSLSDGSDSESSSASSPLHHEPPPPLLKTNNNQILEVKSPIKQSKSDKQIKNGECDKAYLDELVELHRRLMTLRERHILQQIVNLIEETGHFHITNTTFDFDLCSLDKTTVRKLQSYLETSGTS
FGF22 binding = binders of human FGF22 protein, primary screen, FGF22 synaptogenesis inhibitor project, biophysical, thermal shift, single point | actives 1.5% (n = 340,000) | calls only at 9.99 µM | recombinant FGF22 thermal shift, SYPRO orange fluorescence; percent of sucrose octasulfate shift, DMSO zero;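 active means melting point raised past a set limit in the mean and every replicate; three in four hits are not shown here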
rRNA inh HTS = reduced GFP signal of wild-type E. coli, primary screen, bacterial rRNA inhibitor project, GFP/RFP fluorescence, OD600, single point; E. coli WT GFP vs humanized-ribosome RFP mutants, 24 h; stronger effect = lower value; DMSO median 0, no signal -100; GFP signal change (wild-type ribosome), % (test concentration not listed); actives 1.6% (n = 350,000); AID 720706, 2013;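 active means significant combined selectivity score with lowered wild-type GFP, culture density cut under 30%, mutant RFP and density less affected; inactive means any of these conditions unmet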; further: one replicate is shown; some compounds called inactive have numbers as strong as hits
rRNA inh HTS OD600 = also measured in rRNA inh HTS; calls as there; OD600 change, %; measured here: OD600 growth;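 optical density of the mix in the first replicate; 0 = DMSO median and -100 = no signal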
rRNA inh HTS RFP = recorded beside rRNA inh HTS, whose call it bears; RFP signal change, %; measured here: RFP humanized mutant strains;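 first replicate; 0 = DMSO median and -100 = no signal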
* hit, by the source's call; i = inactive. Not all compounds are listed; the hit share may differ from the screen's.

structure	MLL AF4-AF9 inh	FGF22 binding	rRNA inh HTS	rRNA inh HTS OD600	rRNA inh HTS RFP
Nc1ccn([C@@H]2O[C@H](CNCc3ccc(N4CCNCC4)cc3)[C@@H](O)[C@H]2O)c(=O)n1	4.5	i	7	3	0.0
O=C(C[C@@H]1C=C[C@@H](NC(=O)CN2CCOCC2)[C@@H](CO)O1)NC1CCC1	-1.3	i	1	1	-1.6
OC[C@H]1[C@@H](c2ccc(-c3ccc(F)cc3)cc2)[C@H]2CN(Cc3ccncc3)CCCCN21	9.9	i	0	0	5.8
Cc1noc(C)c1NC(=O)Nc1ccc2c(c1)C(=O)N([C@H](C)CO)C[C@H](C)[C@H](CN(C)C(=O)CCCN(C)C)OCCCC[C@@H](C)O2	-2.2	i	1	8	-1.6
C[C@@H]1CCCCO[C@@H](CN(C)C)[C@@H](C)CN([C@H](C)CO)C(=O)c2cc(NS(=O)(=O)c3ccccc3)ccc2O1	-2.5	i	4	4	0.0
C[C@H]1CN([C@@H](C)CO)C(=O)c2cc(NC(=O)CCC(F)(F)F)ccc2O[C@@H]1CN(C)Cc1ccccc1	-5.7	i	1	17	-1.7
CO[C@H]1CN(C)C(=O)c2cc(NS(=O)(=O)CC(F)(F)F)ccc2OC[C@H](C)N(Cc2cccnc2)C[C@H]1C	2.1	i	-1	-4	0.5
C[C@H]1CN([C@@H](C)CO)S(=O)(=O)c2ccc(C#CC(C)(C)O)cc2O[C@@H]1CN(C)Cc1ccc(F)cc1	-3.0	i	-22	-63	10
CCNC(=O)Nc1ccc2c(c1)C(=O)N(C)[C@@H]1CC[C@@H](CC(=O)NC3CCCCC3)O[C@H]1CO2	-1.3	i	4	1	-1.0
CO[C@@H]1CN(C)C(=O)c2ccc(NC(=O)C3CC3)cc2OC[C@H](C)N(C(=O)C2CCCCC2)C[C@H]1C	-1.8	i	-3	-7	-0.1
CCCNC(=O)N1C[C@@H](O)COC[C@@H]2O[C@@H](CC(=O)N3CCCCC3)CC[C@H]21	-0.5	i	4	8	2.1
COc1ccc(NC(=O)N(C)C[C@H]2OCCCC[C@@H](C)Oc3ccc(NC(=O)C4CCCCC4)cc3C(=O)N([C@@H](C)CO)C[C@@H]2C)cc1	0.1	i	-2	-6	-1.3
Cc1ccc(S(=O)(=O)N[C@H]2C=C[C@@H](CC(=O)N3CCN(c4ccccc4)CC3)O[C@H]2CO)cc1	0.0	i	-5	9	0.8
CC1(C(=O)NS(=O)(=O)c2ccc(F)cc2F)CCN1C(=O)CCc1ccc(Cl)cc1Cl (centres undefined)	-11	i	-11	-9	0.1
CN(C)C(=O)C[C@@H]1CC[C@@H]2[C@H](COc3ccc(NC(=O)C4CC4)cc3C(=O)N2C)O1	-0.5	i	5	4	-0.6
CNC[C@@H]1Oc2ccc(NC(=O)CCC(F)(F)F)cc2C(=O)N([C@H](C)CO)C[C@H]1C	-4.1	i	7	3	-1.2
CO[C@H]1CN(C)C(=O)c2cc(NC(=O)Nc3cccc(F)c3)ccc2OC[C@H](C)N(C(C)=O)C[C@H]1C	10.0	i	-7	-11	3.2
C[C@H](NC(=O)C[C@H]1CC[C@@H]2[C@@H](COc3ccc(NS(=O)(=O)c4ccc(Cl)cc4)cc3C(=O)N2C)O1)c1ccccc1	-0.7	i	-1	-13	-3.0
COc1ccc2c3c(n(C)c2c1)[C@H](CO)N(C(=O)Cc1ccccc1)CC31CN(C(C)=O)C1	1.0	i	-3	3	-1.9
C[C@@H]1CN([C@@H](C)CO)C(=O)c2cc(NC(=O)NC3CCCCC3)ccc2O[C@@H](C)CCCCO[C@@H]1CN(C)C(=O)c1ccccc1	2.5	i	-5	-15	0.7
COc1cccc(S(=O)(=O)N[C@H]2CC[C@@H](CC(=O)NC3Cc4ccccc4C3)O[C@@H]2CO)c1	-0.3	i	-2	-4	-0.7
CO[C@@H]1CN(C)C(=O)c2cc(NC(=O)C3CCCCC3)ccc2OC[C@H](C)N(Cc2cccnc2)C[C@H]1C	2.2	i	-4	-1	0.7
O=C(CN1CCOCC1)N[C@H]1CC[C@@H](CCNC(=O)Nc2cc(F)ccc2F)O[C@H]1CO	2.5	i	-1	2	0.5
C[C@H](CO)N1C[C@H](C)[C@H](CN(C)C(=O)C2CCCCC2)OCCCC[C@H](C)Oc2ccc(NC(=O)CCC(F)(F)F)cc2C1=O	-1.8	i	-3	0	-1.1
O=C(N[C@@H]1CC[C@@H](CCNS(=O)(=O)c2ccc(F)cc2)O[C@H]1CO)C1CCCC1	1.1	i	-2	-2	-0.9

Random excerpt: 6 compounds from above, in no set order.
structure	MLL AF4-AF9 inh	FGF22 binding	rRNA inh HTS	rRNA inh HTS OD600	rRNA inh HTS RFP
COc1ccc(NC(=O)N(C)C[C@H]2OCCCC[C@@H](C)Oc3ccc(NC(=O)C4CCCCC4)cc3C(=O)N([C@@H](C)CO)C[C@@H]2C)cc1	0.1	i	-2	-6	-1.3
CO[C@H]1CN(C)C(=O)c2cc(NS(=O)(=O)CC(F)(F)F)ccc2OC[C@H](C)N(Cc2cccnc2)C[C@H]1C	2.1	i	-1	-4	0.5
COc1ccc2c3c(n(C)c2c1)[C@H](CO)N(C(=O)Cc1ccccc1)CC31CN(C(C)=O)C1	1.0	i	-3	3	-1.9
O=C(CN1CCOCC1)N[C@H]1CC[C@@H](CCNC(=O)Nc2cc(F)ccc2F)O[C@H]1CO	2.5	i	-1	2	0.5
CO[C@@H]1CN(C)C(=O)c2cc(NC(=O)C3CCCCC3)ccc2OC[C@H](C)N(Cc2cccnc2)C[C@H]1C	2.2	i	-4	-1	0.7
C[C@@H]1CCCCO[C@@H](CN(C)C)[C@@H](C)CN([C@H](C)CO)C(=O)c2cc(NS(=O)(=O)c3ccccc3)ccc2O1	-2.5	i	4	4	0.0

A stretch from further up, for reference:
structure	MLL AF4-AF9 inh	FGF22 binding	rRNA inh HTS	rRNA inh HTS OD600	rRNA inh HTS RFP
C[C@H](NC(=O)C[C@H]1CC[C@@H]2[C@@H](COc3ccc(NS(=O)(=O)c4ccc(Cl)cc4)cc3C(=O)N2C)O1)c1ccccc1	-0.7	i	-1	-13	-3.0
COc1ccc2c3c(n(C)c2c1)[C@H](CO)N(C(=O)Cc1ccccc1)CC31CN(C(C)=O)C1	1.0	i	-3	3	-1.9

More compounds follow.
SMILES | MLL AF4-AF9 inh | FGF22 binding | rRNA inh HTS | rRNA inh HTS OD600 | rRNA inh HTS RFP
CC(=O)N1CCCCN2[C@H](CO)[C@H](c3ccc(-c4ccc(C)cc4)cc3)[C@H]2C1 | -2.6 | i | -2 | -9 | -0.8
O=C(NNC(=O)c1ccccc1-n1cccc1)c1cccnc1 | -5.0 | i | 4 | 21 | -6.4
CCCNC(=O)[C@H]1[C@H](CO)[C@H]2Cn3c(ccc(-c4cccc(F)c4)c3=O)[C@H]2N1C(=O)CC | -1.0 | i | -1 | -5 | 3.1
CO[C@H]1CN(C)C(=O)c2cc(NC(=O)Nc3ccccc3)ccc2OC[C@H](C)N(C(=O)CC2CC2)C[C@H]1C | 1.6 | i | -3 | -11 | 3.1
C[C@@H]1CN([C@H](C)CO)C(=O)c2cc(NS(=O)(=O)c3ccc(F)cc3)ccc2O[C@H]1CN(C)S(=O)(=O)c1cccs1 | -4.4 | i | -6 | -7 | 3.2
CCCNC(=O)N1CC2(C1)[C@@H](c1ccccc1)[C@H](CO)N2Cc1ccc(F)cc1 | -2.1 | i | 0 | 3 | -0.6
O=C(NC1CCC1)[C@H]1[C@H](CO)[C@H]2Cn3c(ccc(C4=CCCC4)c3=O)[C@H]2N1C(=O)C1CCCC1 | 1.2 | i | 0 | 1 | -0.7
O=C(N[C@H]1C=C[C@H](CC(=O)N2CCCCC2)O[C@H]1CO)c1ccccn1 | -1.1 | i | 4 | -2 | -1.8
